RE007 growth inh = less growth of the S. pombe RE007 Vpr strain. hit rate 0.21% among 360,000. Potency, µM (highest dose often 92.2 µM), for the others: at the top dose activity change, negative = less growth. S. pombe RE007 Vpr strain, BacTiter-Glo ATP luminescence, 24 h; control for the full effect not named in the record; active = well fitted falling curve with a large enough effect; inconclusive = small, poorly fitted or top-dose-only effect; inactive = no such curve, though single readings can be large or run the other way;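 also: % is scaled to controls: 0 for no effect and ±100 for the full control effect; nearly all actives have a fitted effect of over 50% in size; the assay follows cell death caused by Vpr and the record does not say whether a fall means rescue or toxicity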
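Fission yeast RE007 carrying one integrated HIV-1 vpr copy, seeded at OD 0.01 in PMG+AL medium with 23 nL pinned compound. Grown 24 h at 30 degrees; viability read by BacTiter-Glo luminescence after 5 min.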
LASV entry inh = Lassa virus entry inhibition; Lassa virus pseudotype entry inhibition, cell reporter; control for the full effect not named in the record; Potency, µM (titrated, usually from 37.9 µM), for inactives: top-dose activity change, negative = inhibition, actives largely listed as inhibitors; hit rate 1.2% among 300,000; AID 540256; active means well fitted inhibition curve with a large enough effect; inconclusive means small, poorly fitted or top-dose-only effect, or effect the other way; inactive means flat fitted curve, though single readings scatter; tested in HEK293 cells; also: % is scaled to controls: 0 for no effect and ±100 for the full control effect; nearly all actives have a fitted effect of over 50% in size; luciferase read-out
2A StopGo = FMDV 2A StopGo reporter, luciferase signal | human cells with a luciferase reporter of 2A StopGo recoding; control for the full effect not named in the record | Potency, µM (highest dose often 57.9 µM), for the others: top-dose signal change, negative = less light | hit rate 1.2% among 410,000; active = well fitted falling curve with a large enough effect; inconclusive = small, poorly fitted or top-dose-only effect; inactive = no such curve, though single readings can be large or run the other way; tested in HEK293T cells; also: % is scaled to controls: 0 for no effect and ±100 for the full control effect; nearly all actives have a fitted effect of over 45% in size; luciferase light after 4 h
Cruzain noTriton = blocks cruzain activity in detergent-free assay | Potency, µM, for inactives: max response, negative = inhibition, most hits filed as inhibitors | AID 1476 | hit rate 2.3% among 200,000 | purified cruzain, Z-FR-AMC fluorescence, no detergent | P25779;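 also: plate controls were enzyme without inhibitor for no effect and buffer without enzyme for full effect; nearly all actives have a fitted effect of over 40% in size; top concentration of the series not given in the record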
Target sequence (P25779 123-467 limits assumed): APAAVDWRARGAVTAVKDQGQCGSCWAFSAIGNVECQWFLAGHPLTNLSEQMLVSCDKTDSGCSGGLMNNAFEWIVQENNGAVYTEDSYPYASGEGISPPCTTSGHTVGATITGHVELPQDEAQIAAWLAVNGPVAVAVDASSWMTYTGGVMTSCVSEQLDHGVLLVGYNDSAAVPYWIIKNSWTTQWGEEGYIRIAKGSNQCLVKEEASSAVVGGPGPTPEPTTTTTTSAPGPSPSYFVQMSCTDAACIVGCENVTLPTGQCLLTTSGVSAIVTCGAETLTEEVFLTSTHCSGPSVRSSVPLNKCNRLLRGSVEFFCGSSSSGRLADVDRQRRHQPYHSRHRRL
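Purified cruzain at 1.5 nM, pre-incubated 15 min with compound at room temperature in 100 mM sodium acetate pH 5.5, 5 mM DTT, 0.00005% Triton X-100. Reaction started with 2 uM Z-FR-AMC; AMC fluorescence increase over 60 s gives rate.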
MARV entry inh = Marburg virus entry inhibition | Marburg virus pseudotyped entry inhibition, cell reporter; control for the full effect not named in the record; about a third of the inactives were read at about 46 µM | Potency, µM (titrated, usually from 37.8 µM), inactives show top-dose activity change, negative = inhibition, hits mostly inhibitors | hit rate 1.8% among 300,000; active = well fitted inhibition curve with a large enough effect; inconclusive = small, poorly fitted or top-dose-only effect, or effect the other way; inactive = flat fitted curve, though single readings scatter; tested in HEK293 cells; about a fifth of its hits are not listed in these tables; also: % is scaled to controls: 0 for no effect and ±100 for the full control effect; luciferase read-out
SARS PLpro yeast = blocks SARS-CoV papain-like protease in a yeast assay | Potency, µM (series often up to 32.9 µM), for inactives: at the highest dose activity, positive = growth rescue | S. cerevisiae expressing SARS-CoV PLpro, growth rescue; control for the full effect not named in the record | AID 485353 | hit rate 0.19% among 330,000; active means well fitted rising curve with a large enough effect; inconclusive means small, poorly fitted or top-dose-only effect; inactive means no such curve, though single readings can be large or run the other way; also: 0% is about no effect; nearly all actives have a fitted effect of over 55% in size; growth read by luminescence after 48 h
Cruzain Triton = cruzain (T. cruzi) inhibition with detergent; P25779; purified cruzain, Z-FR-AMC fluorescence, 0.01% Triton; Potency, µM, inactives show max response, negative = inhibition, actives largely listed as inhibitors; hit rate 0.43% among 200,000; AID 1478;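 also: plate controls were neutral wells for no effect and buffer without enzyme for full effect; nearly all actives have a fitted effect of over 40% in size; top concentration of the series not given in the record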
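Steps: dispense cruzain (1.5 nM final) in acetate buffer pH 5.5 with DTT and 0.01% Triton X-100; pin-transfer compounds; incubate 15 min RT; add Z-FR-AMC (2 uM final); read fluorescence every 30 s, using the 60 s intensity change.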
NS1 function inh = inhibitors of influenza NS1 protein function; hit rate 0.4% among 270,000; Potency, µM (top dose mostly 46.1 µM), for inactives: at the highest dose activity, positive = more growth; S. cerevisiae slowed by influenza A NS1, growth recovery by OD600; AID 2326; active means well fitted rising curve with a large enough effect; inconclusive means small, poorly fitted or top-dose-only effect; inactive means no such curve, though single readings can be large or run the other way; also: nearly all actives have a fitted effect of over 50% in size
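A cell-based growth assay was used: compounds that relieve NS1-induced slow growth of budding yeast raise OD600. Assay medium was yeast nitrogen base with ammonium sulphate and -URA supplement, pH 6.0, with 2% galactose.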
The depositor's hits bear a star; ? = inconclusive; · = not tested or not shown; & = joins results of further samples; [ ] = remark or other dose. Unless noted, calls follow the shape of the dose curve; as a rule, active = well fitted curve in the direction sought with a large enough effect; inconclusive = small, poorly fitted or top-dose-only effect, or another doubt; inactive = no such curve, though single readings can be large; an effect the other way counts as inactive or inconclusive. Potency is read from the fitted curve at half-maximal effect.

SMILES	RE007 growth inh	LASV entry inh	2A StopGo	Cruzain noTriton	MARV entry inh	SARS PLpro yeast	Cruzain Triton	NS1 function inh
N#Cc1ccc(N/N=C/c2cn(-c3ccccc3)nc2-c2ccccc2)c([N+](=O)[O-])c1	4%	4%	-9%	5µM*	?	-6%	-4.5%	26%
CC(C)c1ccc(NC(=O)COC(=O)CC2CCCC2)cc1	-8%	?	-3%	·	16%	-11%	·	·
CC(C)CC(=O)N=C1SC2CS(=O)(=O)CC2N1Cc1ccccc1Cl (stereo not given)	-6%	·	-4%	·	·	0%	·	1%
COc1cccc(C2CCCCN(C)C2=O)c1 (stereo not given)	9%	11%[46.1 µM]	50%[activator]	·	?	0%	·	0%
CC(/C=C/c1ccco1)=N/NC(=O)c1ccccc1Cl	-9%	4%	42%[activator]	?	?	4%	-14%	-2%
COc1ccc(Nc2c(-c3cccc(O)c3)nc3cnccn23)cc1	·	·	12%	-1%	5%[46.1 µM]	·	-2.3%	·
Cc1cc(/C=N/NC(=O)CC2(C)OCCO2)c(C)n1-c1ccc(Cl)c(Cl)c1	1%	?	-23%	?	?	-17%	-9.2%	0%
CCn1nnc(NC(=O)c2cccnc2)n1	-13%	-7%	-18%	-5%	?	8%	0.2%	13%
O=C(NCCc1ccc(S(=O)(=O)N2CCCC2)cc1)c1cccs1	3%	-7%	-18%	-6%	-3%	-19%	2.8%	3%
Cc1ccccc1CS(=O)(=O)c1ccc(C(=O)N2CCOCC2)cc1[N+](=O)[O-]	-1%	·	?	·	·	1%	·	3%
CC(Sc1nc(N)cc(=O)[nH]1)C(=O)Nc1cccc(Cl)c1 (stereo not given)	25%	0%	-25%	9%	-30%	7%	6.9%	10µM*
CCCCC(c1nnnn1C1CCCC1)N1CCN(C2CCCC2)CC1 (stereo not given)	1%	1%	-7%	10%	-25%[46.1 µM]	6%	2.8%	0%
COC(=O)c1ccc(NC(=O)CSCc2ccccc2C)cc1	-1%	-2%	52%[activator]	-7%	11%	-17%	-6.1%	-71%
O=C1C(=O)N(CCN2CCOCC2)C(c2ccccc2)/C1=C(\O)c1ccc2c(c1)OCCO2 (stereo not given)	0%	1%	-2%	·	1%	-4%	·	-11%
COC(=O)c1ccc(OCC(O)CN(CC(C)C)CC(C)C)cc1 (stereo not given)	-7%	-6%	-21%	-2%	-19%	4%	4.3%	-7%
COc1ccc(OC)c2sc(N(CCN(C)C)C(=O)/C=C/c3cccs3)nc12	-4%	?	-20%	·	?	-3%	·	-4%
COC(=O)C1=C(C)N(CCc2c[nH]c3ccc(OC)cc23)C(=O)C1	-3%	20%	-2%	·	?	-3%	·	·
CCOc1ccc2nc(N(CCCN(C)C)C(=O)c3ccc4c(c3)CCCC4)sc2c1	6%	·	-47%	·	·	0%	·	-7%
O=C(CSc1ncn(-c2ccccc2)n1)Nc1ccc2c(c1)OCCO2	15%	2%	1%	-7%	-9%	-1%	-0.8%	-16%
Cc1cc(C)c2c(-n3cccc3)c(C(=O)NCCCN3CCCCC3C)sc2n1 (stereo not given)	·	0%[46.1 µM]	-11%	-6%	0%[46.1 µM]	·	-2.4%	·
O=C(NCC1CC1)Nc1cccc(Cl)c1	7%	·	33%[activator]	·	·	-4%	·	-6%
NC(=O)C1(N2CCCCC2)CCN(C(=S)Nc2cccc(Cl)c2)CC1	1%	-22%	-18%	-2%	-3%	13%	-1.4%	1%
O=C1CCC([N+](=O)[O-])C(c2cccc(Br)c2)N1 (stereo not given)	5%	0%	-17%	1%	15%	-8%	1.4%	26%
Brc1ccc(C=Nc2ccc3c(c2)OCCOCCOCCO3)s1	8%	19%	5%	10%	-16%	-1%	-1.0%	11%
COc1ccc(NC(=O)CN2CCN(CC(=O)Nc3ccccc3F)CC2)c(OC)c1	-8%	2%	?	-10%&8%	-13%[46.1 µM]	4%	0.0%&0.0%	-6%

Overlap with the part before: 3 compounds, followed by the next part.
SMILES	RE007 growth inh	LASV entry inh	2A StopGo	Cruzain noTriton	MARV entry inh	SARS PLpro yeast	Cruzain Triton	NS1 function inh
O=C1CCC([N+](=O)[O-])C(c2cccc(Br)c2)N1 (stereo not given)	5%	0%	-17%	1%	15%	-8%	1.4%	26%
Brc1ccc(C=Nc2ccc3c(c2)OCCOCCOCCO3)s1	8%	19%	5%	10%	-16%	-1%	-1.0%	11%
COc1ccc(NC(=O)CN2CCN(CC(=O)Nc3ccccc3F)CC2)c(OC)c1	-8%	2%	?	-10%&8%	-13%[46.1 µM]	4%	0.0%&0.0%	-6%
Cc1csc(CN(C)C(=O)CC2C(=O)NCCN2Cc2ccc(F)c(F)c2)n1 (stereo not given)	1%	12%	-19%	·	-15%	0%	·	-2%
CCN(CC)CCN(CC)Cc1ccccc1Br	-11%	?	-23%	-1%	?	4%	2.2%	1%
C/C(=N\NC(=O)C(=O)Nc1cc(C)ccc1C)c1ccncc1	-8%	·	3%	·	·	-2%	·	-2%
COC(=O)c1c(NC(=O)c2ccn(C)n2)sc2c1CCC2	-1%	·	33%[activator]	·	·	-2%	·	-1%
COc1cc(C2c3c(-c4cc(C)ccc4O)n[nH]c3C(=O)N2Cc2ccco2)cc(OC)c1OC (stereo not given)	·	?	-16%	28%	?	·	-16%	·
C=CCNC(=O)CCCCC(=O)NCC=C	4%	11%	-3%	-8%	19%	-4%	-1.0%	5%
CC(C)(C)N1CC(C(=O)Nc2ccc(S(N)(=O)=O)cc2)CC1=O (stereo not given)	7%	·	2%	·	·	3%	·	7%
CCOc1ccc(Nc2oc(Cc3ccccc3)nc2C#N)cc1	-5%	-23%	24%	-7%	-14%	-13%	-9.9%	-63%
COc1cc2oc3ccccc3c(=O)c2cc1OC	-19%	·	28%	·	·	-8%	·	-36%
CC(=O)N1c2ccc(S(=O)(=O)NCC3CCC(C(=O)NCc4ccco4)CC3)cc2CC1C (stereo not given)	3%	6%[46.1 µM]	9%	·	-17%[46.1 µM]	0%	·	-4%
Cc1ccc(-c2n[nH]c(=S)n2/N=C/C=C/c2ccccc2[N+](=O)[O-])cc1	0%	13µM*	-8%	-15%	7%	6%	-2.4%	12%
CCN1C(=O)C(=Cc2c(C)n(CC(=O)NCC3CCCO3)c3ccccc23)C(=O)N(CC)C1=S (stereo not given)	3%	·	25µM*	·	·	-3%	·	24%
COc1cccc(NC(=S)N(CCc2c(C)[nH]c3ccc(C)cc23)Cc2cccs2)c1	7%	?	-12%	?	?	-3%	12%	?
CCOC(=O)Cn1nc2sc3ccccc3n2c(=O)c1=O	10%	11%	-9%	·	7%[46.1 µM]	0%	·	-1%
CC(C)C(=O)Nc1ccc(-c2nnc(-c3ccccc3)o2)cc1	7%	?	-9%	·	?	0%	·	-7%
Cc1ccc(Sc2ncccc2C(=O)O)cc1C	-7%	6%	?	-5%	-2%	-3%	2.5%	?
Cc1ccccc1CNC(=O)C1CCCN(c2cnccn2)C1 (stereo not given)	6%	·	-13%	·	·	6%	·	0%
COc1ccc(S(=O)(=O)N2CCCC(C(=O)NCCCn3ccnc3)C2)cc1OC (stereo not given)	30%	0%	-9%	·	?	1%	·	-1%
CCOC(=O)c1ccc(NC(=O)CC2S/C(=N/N=C3/NC(=O)CS3)NC2=O)cc1 (stereo not given)	-11%	?	2%	·	8%[46.1 µM]	-1%	·	·
O=C(NCc1cccs1)c1ccc2c(c1)sc1nc(-c3ccccc3)cn12	·	10%[46.1 µM]	27%	17%	·	·	3.1%	·
COc1ccccc1NS(=O)(=O)c1ccc(-c2cnc(C3CC3)o2)cc1	1%	·	-24%	·	·	0%	·	-11%
O=C(Oc1ccc(Cl)cc1)N1CCOCC1	-3%	?	34%[activator]	·	-3%	-3%	·	-48%
COc1ccc(NC(=O)C(Sc2ccccc2)c2ccccc2)c(OC)c1 (stereo not given)	9%	-22%	-9%	2%	-1%	3%	-8.2%	-4%
O=C1NC(=O)N(Cc2ccccc2)C(=O)/C1=C\C=C\c1ccco1	44%	?	25µM*	·	?	-1%	·	·
COc1ccc(CCNC(=O)CSc2nc3ncccc3[nH]2)c(OC)c1	1%	·	-3%	·	·	4%	·	-2%

Additional entries:
SMILES	RE007 growth inh	LASV entry inh	2A StopGo	Cruzain noTriton	MARV entry inh	SARS PLpro yeast	Cruzain Triton	NS1 function inh
CCN(CC)S(=O)(=O)c1ccc(N2CCCC2)c(NC(=O)c2ccccc2OC)c1	-8%	·	-14%	·	·	-1%	·	-4%
N#C/C(=C(/O)CSc1ccccc1C(=O)O)c1nc2ccccc2s1	-15%	-3%	4%	-3%	19%	1%	4.1%	-3%
CCOC(=O)C(C)/C(C)=N/NC(N)=S (stereo not given)	16%	19%	-12%	-12%	2%	?	-5.1%	-1%
O=C(NCc1ccccc1CN1CCCC1)c1ccc(Cl)c(S(=O)(=O)N2CCCC2)c1	-18%	-17%	4%	·	?	-1%	·	·
CC(=O)Nc1nc(-c2ccccc2)nc(-c2ccccc2OC(C)=O)n1	3%	?	·	12%	-26%	1%	-0.3%	-40%
O=C(Cn1[nH]c(=O)c2ccccc2c1=O)Nc1cccnc1	-7%	1%	16%	·	-1%[46.1 µM]	1%	·	·

Quoted from the listing:
`CCN(CC)S(=O)(=O)c1ccc(N2CCCC2)c(NC(=O)c2ccccc2OC)c1` @ RE007 growth inh: -8%
`CC(=O)Nc1nc(-c2ccccc2)nc(-c2ccccc2OC(C)=O)n1` @ MARV entry inh: -26%

3 consecutive compounds already listed, quoted:
SMILES	RE007 growth inh	LASV entry inh	2A StopGo	Cruzain noTriton	MARV entry inh	SARS PLpro yeast	Cruzain Triton	NS1 function inh
N#C/C(=C(/O)CSc1ccccc1C(=O)O)c1nc2ccccc2s1	-15%	-3%	4%	-3%	19%	1%	4.1%	-3%
CCOC(=O)C(C)/C(C)=N/NC(N)=S (stereo not given)	16%	19%	-12%	-12%	2%	?	-5.1%	-1%
O=C(NCc1ccccc1CN1CCCC1)c1ccc(Cl)c(S(=O)(=O)N2CCCC2)c1	-18%	-17%	4%	·	?	-1%	·	·
